High-throughput results as filed in PubChem.
PKD1 inh: inhibitors of human PKD1 kinase, biochemical, fluorescence polarization; Serine/threonine-protein kinase D1 (Homo sapiens), Q15139; PKD1 kinase fluorescence polarization assay; inhibition, %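 (about 10 µM by stock and volumes)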; hit rate 0.056% among 200,000;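 active = inhibition of 50% or more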;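 also: controls were vehicle for no effect and a reference inhibitor for full effect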
RGS16-Gao: modulators of RGS16 binding to Galphao, primary screen, biochemical, human proteins, multiplexed bead flow cytometry | Regulator of G-protein signaling 16 (Homo sapiens) + Guanine nucleotide-binding protein … | bead-based flow cytometry RGS16-Galphao binding, fluorescence; actives lie on both sides | binding response (% of control), % at 10 µM | hit rate 0.38% among 220,000 | AID 1441, 2008;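 active = below 25% or above 175%, edge rows of some plates excepted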;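 also: Galphao activated by GDP with aluminum fluoride before binding; 100% = wells without compound and 0% = beads without RGS; some results beyond the cut were filed as inactive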
Target sequence (O15492 whole entry, looked up): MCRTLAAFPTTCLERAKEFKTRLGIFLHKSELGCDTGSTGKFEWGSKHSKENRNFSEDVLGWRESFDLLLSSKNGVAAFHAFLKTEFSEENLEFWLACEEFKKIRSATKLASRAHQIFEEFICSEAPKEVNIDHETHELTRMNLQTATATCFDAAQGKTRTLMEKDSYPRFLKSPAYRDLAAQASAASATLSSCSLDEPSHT
Target sequence (P09471 whole entry, looked up): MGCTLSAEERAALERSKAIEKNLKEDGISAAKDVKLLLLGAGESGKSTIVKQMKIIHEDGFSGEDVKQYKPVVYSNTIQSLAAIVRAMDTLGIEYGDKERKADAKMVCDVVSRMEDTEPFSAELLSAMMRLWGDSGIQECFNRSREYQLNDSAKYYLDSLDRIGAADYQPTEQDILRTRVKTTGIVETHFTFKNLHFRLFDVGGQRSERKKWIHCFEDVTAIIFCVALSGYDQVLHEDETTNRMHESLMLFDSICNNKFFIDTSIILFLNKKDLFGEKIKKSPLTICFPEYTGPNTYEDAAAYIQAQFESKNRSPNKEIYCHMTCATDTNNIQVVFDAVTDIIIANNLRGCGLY
HSV augment: enhancers of HSV replication in host cells, fold increase, host cell viability. HSV replication augmentation in cells. maximum fold increase. hit rate 0.005% among 220,000. AID 1956, 2009;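 active = peak rise of 1.5-fold or more in the series; inconclusive = self-fluorescent or not available for retest; tested in PC3 cells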;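 also: first round at 10 µM; read as green reporter fluorescence; hits show the peak of a series up to 25 µM; 1 = signal of infected wells without compound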
GALR2 agonist: GALR2 receptor agonists, primary screen, cell-based. hit rate 0.48% among 140,000. Galanin receptor type 2 (Homo sapiens), O43603. activation, %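 (tested at 5 µM)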. GALR2-expressing cells, agonist activation read-out;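 active = above mean plus 3 SD of all compounds, about 5% in these data, not always enough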;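 also: 0% = vehicle buffer wells and 100% = reference agonist at full effect; tested in CHO reporter cells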
Target sequence (O43603 whole entry, looked up): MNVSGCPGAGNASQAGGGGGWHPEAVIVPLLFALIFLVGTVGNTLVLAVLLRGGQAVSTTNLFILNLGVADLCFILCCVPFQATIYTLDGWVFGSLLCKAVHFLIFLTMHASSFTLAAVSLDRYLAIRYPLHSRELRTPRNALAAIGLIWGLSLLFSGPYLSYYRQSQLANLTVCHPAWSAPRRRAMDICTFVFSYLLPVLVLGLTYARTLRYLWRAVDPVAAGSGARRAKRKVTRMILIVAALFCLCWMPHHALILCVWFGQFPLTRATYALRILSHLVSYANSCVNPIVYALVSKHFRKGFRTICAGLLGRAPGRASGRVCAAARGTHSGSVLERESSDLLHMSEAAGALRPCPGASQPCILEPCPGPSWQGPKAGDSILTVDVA
INS promoter inh: inhibitors of insulin promoter-driven GFP, primary screen, imaging, TRM-6 cells (human fetal islet line), eGFP reporter, cell count. reporter expression induced with tamoxifen. inhibition, % at 2 µM. hit rate 0.9% among 130,000. AID 1273, 2008;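 active = inhibition above the mean plus 3 SD, with well images judged a real hit on visual review, cut at about 60% in these data, passing the limit was not always enough; inconclusive = inhibition over the cutoff but images rejected on review; inactive = inhibition not above the cutoff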
INS promoter inh cell count: also measured in INS promoter inh; calls as there; normalized cell count, %; measured here: cell count, toxicity; reference of the scale not given here;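 cells exposed to compound for 48 h; stained nuclei by imaging scaled within each plate; lower means fewer cells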
HSV augment primary fold: further read-out of HSV augment, marked with its call; fold increase; compound at 10 µM; measured here: primary screen fold increase 10 uM; tested in PC3 cells;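 GFP signal in the first replicate; 1 = infected wells without compound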
* = called active by the depositor; i = inactive; ? = inconclusive; . = no result given; [ ] = another dose, or the depositor's remark.

structure	PKD1 inh	RGS16-Gao	HSV augment	HSV augment primary fold	GALR2 agonist	INS promoter inh	INS promoter inh cell count
Cc1ccc(S(=O)(=O)c2c(COC(=O)c3ccc(Cl)cc3)c(-c3ccccc3)nn2C)cc1	-4	73	i	0.9	-2.4	-16	92
CCn1nc(C)c(/C=N/NC(=O)Cn2nnc(N)n2)c1C	.	98	i	0.99	.	.	.
C=CCNCCOc1ccc(C(C)(C)c2ccccc2)cc1	-12	107	.	.	-0.5	0	129
COc1cc(CCC(=O)N2CCN(S(=O)(=O)c3ccc(C)c(C)c3)CC2)cc(OC)c1OC	-4	98	i	1	0.3	.	.
CC(=O)Nc1cccc(C(=O)/C=C/c2ccc(/C=C/C(=O)c3cccc(NC(C)=O)c3)cc2)c1	12	101	i	0.66	-0.9	.	.
COc1cc(CNC(C)c2ccccc2)cc(Cl)c1OCC(=O)Nc1ccccc1 (configuration not stated)	2	92	i	0.82	.	-43	164
O=C1CCCN1CCNC(=S)Nc1ccccc1	-9	100	i	0.91	-2.4	-33	151
CC(C)Cn1c(N2CCN(C(=O)c3cccs3)CC2)nc2ccccc21	-2	104	i	0.88	-3.4	.	.
Cc1cc(N2CCOCC2)ccc1/C=C1\NC(=O)N(CC(=O)Nc2ccccc2C)C1=O	-7	101	.	.	-1.0	1	52
COC(=O)Cn1cc(C(=O)c2ccco2)c2ccccc21	8	96	i	1.1	-1.0	.	.
CCNC(=O)C1CN(S(=O)(=O)c2ccccc2)CCN1S(=O)(=O)c1ccccc1 (configuration not stated)	5	103	i	0.71	-0.2	-11	106
CCn1c(SCc2ccc(C#N)cc2)nnc1-c1ccc(S(=O)(=O)N2CCCCC2)cc1	19	101	i	0.97	0.0	12	114
O=c1[nH]c(SCCOc2cccc3ccccc23)nc2ccccc12	-4	102	i	0.94	.	0	65
COc1ccc(C2=NN(C(=O)c3ccco3)C(c3cc4ccccc4nc3Cl)C2)cc1 (configuration not stated)	.	103	i	1	.	.	.
COc1ccccc1NCCC(=O)OCC(=O)NC1CCCCCC1	-6	103	i	1	-1.6	19	64
CSc1nc2sc3c(c2c(=O)n1C)CCCC3	-6	89	i	0.85	-1.5	-7	80
Cn1c(=O)c2c(ncn2CC(=O)Nc2ccccc2)n(C)c1=O	-4	97	i	0.99	-2.0	21	95
COc1ccc(C(=O)N2CCCC2)cc1S(=O)(=O)N1CCC(C)CC1	-4	100	i	1.1	-0.8	42	108
Cc1cc(C)n(-c2nnc(NC34CC5CC(CC(C5)C3)C4)nn2)n1	-2	69	i	0.99	-0.2	33	84
Cc1oc(CC(C)C)cc1C(=O)Nc1ccc(C(=O)O)cc1	-6	103	i	0.96	-2.8	.	.
O=C(CCc1ccccc1)NCC(=O)N/N=C/c1ccc(O)cc1O	.	98	i	0.99	.	.	.
Cc1ccc(-c2cc(NC(=O)CSc3n[nH]c(N)n3)n(-c3ccccc3)n2)cc1	4	101	i	0.86	-2.8	-17	90
Cc1ccc(S(=O)(=O)Nc2ccc(S(=O)(=O)Nc3ncccn3)cc2)cc1	-4	105	i	0.93	-1.6	18	89
COc1cc(/C=C2\SC(=S)N(Nc3ccccc3)C2=O)ccc1O	1	103	?	.	-0.6	3	133
Cc1cc(C)n2ncc(C(=O)NCCc3ccccc3)c2n1	7	99	i	0.84	1.0	-11	62
COc1cc(C2NC(=O)NC(c3ccccc3)=C2C(C)=O)c(Cl)cc1OCC(=O)O (configuration not stated)	-1	100	i	1.1	.	.	.
Fc1ccccc1/C=C1\CCCC2=C1NC(=S)NC2c1ccccc1F (configuration not stated)	-2	97	i	0.94	.	.	.
O=C(N1CCOCC1)N1CCN(C(=O)N(c2ccccc2)c2ccccc2)CC1	0	101	i	1.2	0.2	5	122
Fc1cccc(/C=N/Nc2ccccn2)c1	-6	103	i	0.99	.	.	.
O=C(Nc1ccc(Cl)cc1F)c1ccc(COc2c(F)c(F)c(F)c(F)c2F)o1	-13	99	i	0.99	-0.3	.	.

Carrying on.
structure	PKD1 inh	RGS16-Gao	HSV augment	HSV augment primary fold	GALR2 agonist	INS promoter inh	INS promoter inh cell count
O=C(COc1ccccc1Cl)N1CCN(c2ncccn2)CC1	-4	95	i	0.99	-0.5	.	.
COc1ccc(N2CC(NC(=O)Nc3ccccc3)CC2=O)cc1 (configuration not stated)	-1	103	i	1	.	42	119
CN1C(=O)S/C(=C/c2cccnc2)C1=O	9	93	i	0.77	-1.2	31	89
NS(=O)(=O)c1ccc(NC(=O)COC(=O)CNC(=O)C23CC4CC(CC(C4)C2)C3)cc1	9	106	i	1	.	.	.
O=C(NC(=S)Nc1nc2ccc(F)cc2s1)c1ccco1	-3	92	i	0.97	.	45	118
CC(=O)c1c(C)nc(C)nc1NC(=O)Cc1ccccc1	-2	104	i	1	0.2	4	186
Cc1cnc(C)c(N2CCN(Cc3nc(-c4ccc(C)o4)oc3C)CC2)n1	-7	100	i	0.97	.	.	.
O=C(Cc1nnc(NC(=O)Nc2ccccc2)s1)NCc1ccccc1	0	102	i	0.94	-1.4	.	.
S=C(Nc1ccccc1Cl)N(Cc1ccccc1)Cc1ccccn1	3	99	i	0.9	.	-20	107
Brc1ccc(C2Nc3cccc4cccc(c34)N2)o1	16	87	i	1.1	-1.4	0	126
CC(C)CCNC(=O)COc1ccc2c(c1)C(=O)CC(C)(C)O2	-6	108	i	1	-0.8	-12	92
COc1ccc(CNC(=O)CCS(=O)(=O)c2cccc3nonc23)cc1	-5	104	i	0.84	0.4	0	112
COc1ccccc1C(=O)NC(=S)NNC(=O)c1sc2ccccc2c1Cl	2	96	i	1.2	-2.5	.	.
Cc1cc(C)c2nc(NC(=O)C3CC(=O)N(Cc4ccco4)C3)sc2c1 (configuration not stated)	2	103	i	1	.	-29	99
COc1ccc(N(CC(=O)NC2CCCCC2)S(=O)(=O)c2c(C)[nH]c(=O)[nH]c2=O)cc1	-8	111	i	0.92	-1.5	.	.
Cn1c(SCC(=O)Nc2ccccc2-c2ccccc2)nnc1-c1ccco1	-1	124	i	1	0.0	29	88
O=C(Nc1ccccc1-c1nc2ccccc2[nH]1)c1ccc(S(=O)(=O)N2CCCCC2)cc1	-3	97	i	0.84	-1.8	.	.
CCOC(=O)C1=C(C)C2C3C(=O)N(c4ccc(C)cc4C)C(=O)C3C1(C)C1C(=O)N(c3ccc(C)cc3C)C(=O)C21 (configuration not stated)	-2	111	i	0.84	-1.6	-15	110
CCCn1c(N)c(C(=O)CSc2nc3ccccc3c(=O)n2Cc2ccccc2)c(=O)[nH]c1=O	5	354	i	1	.	-22	91
CCOc1ncccc1C(=O)OCc1c(Cl)cccc1Cl	-7	110	i	0.87	0.6	-14	120
CC(C)(C)n1nnnc1C(c1cccc(C#N)c1)N1CCN2CCCC2C1 (configuration not stated)	-1	96	i	1.1	-2.7	27	116
O=C(Cc1cccs1)NCc1cccc(F)c1	-4	103	i	1	.	.	.
O=c1[nH][nH]cc1C=NCc1cccnc1	1	101	i	0.9	.	.	.
CC1C(=O)CC(c2ccccc2)NC1c1ccccc1 (configuration not stated)	-4	407*[activator]	i	0.81	-2.3	14	117
CCCc1[nH]nc2c1C1(CCOC1C)C(C#N)=C(N)O2 (configuration not stated)	-3	101	i	0.94	0.0	-8	115
NC(=O)c1ccc(N2CCN(c3ccc(O)cc3)CC2)c([N+](=O)[O-])c1	1	96	i	0.78	.	-18	78
NC(=O)COC(=O)c1ccc(Cl)c(S(=O)(=O)N(Cc2ccccc2)c2ccc(Cl)cc2)c1	-9	101	i	0.99	1.2	.	.
CCN(C(=O)Cn1c(=O)oc2cc(S(=O)(=O)N3CCOCC3)ccc21)c1ccccc1	.	94	i	0.96	.	.	.
CCCCNS(=O)(=O)c1ccc2nc(SCC(=O)N3CC(C)OC(C)C3)[nH]c2c1 (configuration not stated)	4	96	i	1.1	-0.2	22	57
Nc1c(Cl)ncnc1N/N=C/c1cccc(O)c1	.	100	i	1.1	.	.	.

Later entries.
molecule	PKD1 inh	RGS16-Gao	HSV augment	HSV augment primary fold	GALR2 agonist	INS promoter inh	INS promoter inh cell count
CC(C)Sc1nc2c(c(=O)n1-c1ccc(F)cc1)SCC2	-2	97	i	0.74	0.2	-13	87
O=[N+]([O-])c1cccnc1Oc1ccc(F)cc1	.	102	i	1.1	.	.	.
O=C(Cc1ccsc1-c1ccccc1)NO	-5	103	i	1.1	-2.1	-29	80
O=C(CN1C(=O)c2ccccc2S1(=O)=O)c1ccc2c(c1)OCCCO2	.	102	i	0.95	.	.	.
O=S(=O)(c1ccc(-c2csc(=Nc3ccccc3)n2CCCN2CCOCC2)cc1)N1CCOCC1	-2	93	i	0.89	0.6	8	181
COc1ccc(S(=O)(=O)N(CCCN2CCCC2=O)Cc2cc3c(C)cc(C)cc3[nH]c2=O)cc1	5	96	i	0.84	-1.6	.	.
COc1ccc(NC(=O)CN(c2ccc(C)cc2)S(=O)(=O)c2c(C)nn(C)c2C)cc1OC	2	106	i	0.8	-0.1	.	.
O=C(CCCN1C(=O)c2cccc3cccc(c23)C1=O)N1CCN(Cc2ccc3c(c2)OCO3)CC1	3	93	i	0.99	-2.1	-29	103
CC(C)C(=O)N1CCC2(CC1)Oc1ccc(Cl)cc1C(=O)C21CC(c2ccc(Cl)cc2)=NO1 (configuration not stated)	.	107	i	0.95	.	.	.
O=[N+]([O-])c1ccc(-c2ccc(/C=N/O)o2)cc1	.	101	i	0.94	.	.	.
Cc1cccc(-n2c(Cc3cc(=O)[nH]c(=O)[nH]3)nnc2SCC(=O)N2CCCCC2)c1	-7	109	.	.	-2.0	.	.

Full records as entered above.
Entry for O=C(CN1C(=O)c2ccccc2S1(=O)=O)c1ccc2c(c1)OCCCO2 : PKD1 inh: .; RGS16-Gao: 102; HSV augment: i; HSV augment primary fold: 0.95; GALR2 agonist: .; INS promoter inh: .; INS promoter inh cell count: .
Entry for CC(C)Sc1nc2c(c(=O)n1-c1ccc(F)cc1)SCC2 : PKD1 inh: -2; RGS16-Gao: 97; HSV augment: i; HSV augment primary fold: 0.74; GALR2 agonist: 0.2; INS promoter inh: -13; INS promoter inh cell count: 87

2 of the compounds above, as labelled records:
mol: O=C(CCCN1C(=O)c2cccc3cccc(c23)C1=O)N1CCN(Cc2ccc3c(c2)OCO3)CC1
  PKD1 inh: 3	RGS16-Gao: 93	HSV augment: i	HSV augment primary fold: 0.99	GALR2 agonist: -2.1	INS promoter inh: -29	INS promoter inh cell count: 103

mol: O=[N+]([O-])c1ccc(-c2ccc(/C=N/O)o2)cc1
  PKD1 inh: .	RGS16-Gao: 101	HSV augment: i	HSV augment primary fold: 0.94	GALR2 agonist: .	INS promoter inh: .	INS promoter inh cell count: .
